Screening results: PubChem BioAssay, several laboratories
Mtb hypoxia inh: PubChem AID 1159583; M. tuberculosis hypoxia-regulated fluorescent reporter, fluorescence; fluorescence inhibition, % (no concentration beside the values); 300,000 compounds, 0.1% hits;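 active = 35 to 45% if threefold the growth effect, above 45% if 1.5-fold the growth effect; inactive = the rest, general growth blockers included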;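 also: wells of about 50 µL received 100 nL stock; 0% = vehicle wells and 100% = reference inhibitor wells; whole bacteria with a GFP reporter of the hypoxia response; strong numbers were not always called active; many hits fall short of the cut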
BJeLR viability: MLPCN primary cell-based screen for lethality selective to Ras in HRASV12 cells; BJeLR (HRASV12) viability, CellTiter-Glo ATP luminescence, 48 h; reference of the scale not given here; 300,000 compounds, 0.17% hits; inhibition, % (concentration not given with the values); AID 1554, 2009;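 active = replicate mean above 50%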;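 also: 50 nL library stock added to about 25 µL; numbers are from one replicate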
Sa ugtP lethal: growth inhibition of ugtP-null S. aureus, primary screen, RN4220 ugtP deletion, OD600. 330,000 compounds, 0.54% hits. 16 h; some inactives read as strong as hits. growth inhibition, % (concentration not given with the values). AID 1259309, 2017;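 active = z-score under -3 and OD600 up to 0.15 on both plates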;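 also: plate controls were untreated wells for no effect and antibiotic for full effect; wells of about 80 µL received 100 nL stock; the first replicate is given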
PrP UTR inh: inhibition of PrP 5' UTR reporter expression. inhibition, % (test concentration not listed). cell-based PrP 5' UTR mRNA reporter, plate reader. 340,000 compounds, 0.35% hits. AID 488862, 2010;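 active = every replicate at 50% or more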;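 also: 0 = median of the neutral control wells; tested in H4 reporter cells; numbers are from one replicate; inactives centre near -14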
RN4220 kill: growth inhibition of S. aureus RN4220, primary screen, OD600. 16 h. inhibition, % (no concentration beside the values). 330,000 compounds, 0.33% hits. AID 1259311, 2017;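 active = z-score of -3 or lower and OD600 up to 0.18 on both plates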;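 also: plate controls were untreated cells for no effect and reference antibiotic for full effect; stock transfer was 100 nL into about 80 µL; one replicate is shown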
Autofluor counter: counter-screen for toxin protease inhibitors: compound fluorescence; fluorescence intensity (test concentration not listed); 360,000 compounds, 3.1% hits; compound autofluorescence counterscreen, microsphere flow cytometry; active compounds read high; AID 624483;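 active = at least 3 SD above the mean of all compounds, about 16000 in these data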;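 also: 100 nL of 1 mM stock went into each well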
Mtb hypoxia inh growth: second read-out of Mtb hypoxia inh, no call of its own (marks repeat the call); growth inhibition, %; measured here: M. tuberculosis growth (absorbance);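 0% = vehicle and 100% = reference antibiotic; read after six days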
The depositor's hits bear a star.

For O=C(CC1NC(=S)NC1=O)c1ccc(Cl)cc1 (stereo not given) the results were Mtb hypoxia inh -12.9, BJeLR viability -4.4, Sa ugtP lethal 9.7, PrP UTR inh -3.7, RN4220 kill 12.3, Autofluor counter 3549 and Mtb hypoxia inh growth 1.1.
CC(C)C(NC(=O)c1ccc([N+](=O)[O-])cc1Cl)C(=O)N1CCCC1 (stereo not given) was read as Mtb hypoxia inh 3.2, BJeLR viability -1.4, Sa ugtP lethal 5.8, PrP UTR inh -19.1, RN4220 kill 2.4, Autofluor counter 4875 and Mtb hypoxia inh growth -9.3.
Screening CCOC(=O)N1CCN(c2c(-c3ccc(C)c(C)c3)c(=O)c2=O)CC1 returned Mtb hypoxia inh 8.0, BJeLR viability -10.6, Sa ugtP lethal 0.2, PrP UTR inh -14.8, RN4220 kill 6.5, Autofluor counter 10082 and Mtb hypoxia inh growth 8.6.
For CCCCN1C(=S)NCC1C(C)CC (stereo not given) the results were Mtb hypoxia inh 7.0, Sa ugtP lethal -9.7, RN4220 kill 3.1 and Mtb hypoxia inh growth 5.4.
For CCOC(=O)C(C#N)C(c1cccnc1)c1c(C)[nH][nH]c1=O (stereo not given) the results were Mtb hypoxia inh 1.3, BJeLR viability -11.0, Sa ugtP lethal 0.3, PrP UTR inh 3.7, RN4220 kill 4.2, Autofluor counter 4607 and Mtb hypoxia inh growth 3.4.
COc1ccc(CNC(=O)C(OC(=O)c2ccco2)c2ccc(F)cc2)cc1 (stereo not given) was read as BJeLR viability 5.1, PrP UTR inh -18.3 and Autofluor counter 3861.
`CCN(CC(=O)Nc1ccc(OC)cc1)C(=O)c1cc(-c2cccs2)nn1-c1ccccc1` gave Mtb hypoxia inh 3.7, BJeLR viability -2.4, Sa ugtP lethal 12.0, PrP UTR inh -22.7, RN4220 kill 0.2 and Mtb hypoxia inh growth 4.9.
`CC(=O)N1c2ccc(S(=O)(=O)N3CCCC3C(=O)Nc3cccc(F)c3)cc2CC1C` (stereo not given) gave BJeLR viability 1.8, Sa ugtP lethal -0.1, PrP UTR inh -3.8, RN4220 kill -1.8 and Autofluor counter 6010.
Cc1ccc(-n2c(=O)c3cc4c(=O)n(-c5ccc(C)c(C)c5)c(=O)c4c(C(=O)c4ccc(C(=O)O)cc4)c3c2=O)cc1C was read as Mtb hypoxia inh -0.5, BJeLR viability -6.3, Sa ugtP lethal 4.4, PrP UTR inh -18.7, RN4220 kill 5.8, Autofluor counter 5351 and Mtb hypoxia inh growth -6.3.
`CN(C)P(=O)(CCl)Nc1ccccc1` (stereo not given) gave Mtb hypoxia inh 2.1, BJeLR viability 2.3, Sa ugtP lethal 1.0, PrP UTR inh -5.1, RN4220 kill 1.7, Autofluor counter 2461 and Mtb hypoxia inh growth 4.9.
`CCOC(=O)N1CCN(C(=O)c2ccc(CN(c3ccccc3)S(C)(=O)=O)cc2)CC1` gave Mtb hypoxia inh 1.1, BJeLR viability -2.6, Sa ugtP lethal 2.1, PrP UTR inh -19.5, RN4220 kill 1.8, Autofluor counter 9604 and Mtb hypoxia inh growth 4.8.
O=C(Oc1cccc(C(=S)N2CCOCC2)c1)c1cccc(Cl)c1 was read as Mtb hypoxia inh 4.0, BJeLR viability -14.9, Sa ugtP lethal 7.5, PrP UTR inh -4.5, RN4220 kill 3.2, Autofluor counter 4216 and Mtb hypoxia inh growth 0.0.
Screening CC1(C)CCC[C@]2(C)C(CS(=O)c3ccccc3)=C(C=O)CC[C@@H]12 (stereo not given in full) returned Mtb hypoxia inh 3.4, BJeLR viability 14.7, Sa ugtP lethal -5.9, PrP UTR inh -0.1, RN4220 kill 3.1, Autofluor counter 4435 and Mtb hypoxia inh growth 17.3.
COc1c(/C=N/NS(=O)(=O)c2ccc(C)cc2)c(CCN(C)C(C)=O)cc2c1OCO2 was read as BJeLR viability 0.3, PrP UTR inh -7.1 and Autofluor counter 4436.
For Cc1cc(C(=O)CSc2nnnn2C)c(C)n1-c1ccc2c(c1)OCCO2 the results were Mtb hypoxia inh 12.0, BJeLR viability -7.5, Sa ugtP lethal -9.2, PrP UTR inh -53.1, RN4220 kill 3.2, Autofluor counter 4657 and Mtb hypoxia inh growth 4.5.
`CCCC(=O)NC(=S)Nc1cccc(C(C)=O)c1` gave BJeLR viability 4.6, Sa ugtP lethal 8.7, PrP UTR inh -29.7, RN4220 kill 0.7 and Autofluor counter 4850.
`Cc1cccn2c(=O)c(/C=N/O)c(Nc3ccccc3F)nc12` gave BJeLR viability -4.5, PrP UTR inh -9.4 and Autofluor counter 6234.
For Clc1ccccc1-c1ccc(C=Nn2cnnc2)o1 the results were Mtb hypoxia inh 5.1, Sa ugtP lethal -0.6, RN4220 kill 4.4 and Mtb hypoxia inh growth -8.3.
Screening COc1ccc(C)cc1N(C)C(=O)Cc1c(C(=O)O)n(C)c2ccccc12 returned Mtb hypoxia inh 9.0, BJeLR viability 4.6, Sa ugtP lethal 9.2, PrP UTR inh -15.8, RN4220 kill 16.7, Autofluor counter 3924 and Mtb hypoxia inh growth -2.0.
`Cc1cc(C)c(C#N)c(N2CCN(Cc3ccc4c(c3)OCO4)CC2)n1` gave BJeLR viability 7.5, Sa ugtP lethal 4.8, PrP UTR inh -14.2, RN4220 kill 2.4 and Autofluor counter 2740.
Screening Cn1c(=O)c2[nH]c(-c3cccnc3)nc2n(C)c1=O returned Mtb hypoxia inh 6.2, BJeLR viability -0.2, Sa ugtP lethal 2.1, PrP UTR inh 6.3, RN4220 kill 1.6, Autofluor counter 21912* and Mtb hypoxia inh growth 9.9.
For CCOc1ccc(OCCCC(=O)N(CC)CC(=O)Nc2c(F)cccc2F)cc1 the results were Mtb hypoxia inh 0.3, Sa ugtP lethal 7.5, PrP UTR inh -4.3, RN4220 kill 3.1, Autofluor counter 3629 and Mtb hypoxia inh growth -5.0.
Screening CCc1nc(N)c(C#N)c(-c2ccncc2)c1C returned Mtb hypoxia inh 0.4, BJeLR viability -0.4, Sa ugtP lethal 0.8, PrP UTR inh -9.8, RN4220 kill 6.1, Autofluor counter 4130 and Mtb hypoxia inh growth 10.1.
`Cc1cccc(NC(=O)CSc2nnc(C)c(=O)n2N)c1C` gave BJeLR viability -8.5, PrP UTR inh 1.8 and Autofluor counter 2411.
For CC(C)(C)NC(=O)C(=O)NN=Cc1ccc(F)cc1 the results were Mtb hypoxia inh 5.3, Sa ugtP lethal 6.0, RN4220 kill 0.3 and Mtb hypoxia inh growth -0.9.
`COc1ccc(C)cc1NC(=O)CN1C(=O)COc2ccc(S(=O)(=O)N3CCOCC3)cc21` gave Mtb hypoxia inh -5.6, BJeLR viability 3.1, Sa ugtP lethal 4.5, PrP UTR inh -15.1, RN4220 kill 3.3, Autofluor counter 4601 and Mtb hypoxia inh growth 1.0.
Screening CCC(=O)N1CCc2cc(S(=O)(=O)CCC(=O)NCc3ccc(C)cc3)ccc21 returned Mtb hypoxia inh 8.0, BJeLR viability -3.0, Sa ugtP lethal 3.1, PrP UTR inh -8.9, RN4220 kill 0.2, Autofluor counter 4518 and Mtb hypoxia inh growth -4.1.
Cc1ccc(OCC(=O)N/N=C2\CCOc3c(C)cccc32)cc1 was read as BJeLR viability -5.9, PrP UTR inh -23.8 and Autofluor counter 22762*.
For Cc1[nH]c2ccccc2c1C(=O)C(=O)N(C)C1CCCCC1 the results were Mtb hypoxia inh 6.6, BJeLR viability -6.3, Sa ugtP lethal -3.1, PrP UTR inh -14.4, RN4220 kill 0.5, Autofluor counter 4550 and Mtb hypoxia inh growth -8.3.
Screening O=C(N/N=C/c1ccccn1)c1c[nH]c2ccccc12 returned BJeLR viability 5.4, PrP UTR inh -71.9 and Autofluor counter 5896.
`CCCC(=O)NCCc1cc2cc(C)c(C)cc2[nH]c1=O` gave Mtb hypoxia inh 3.2, BJeLR viability 7.3, Sa ugtP lethal 0.3, PrP UTR inh -25.9, RN4220 kill 4.1, Autofluor counter 8950 and Mtb hypoxia inh growth 5.1.
`O=C(NN=Cc1ccncc1)C1CC1(c1ccccc1)c1ccccc1` (stereo not given) gave Mtb hypoxia inh -4.0, Sa ugtP lethal -0.4, RN4220 kill 3.1 and Mtb hypoxia inh growth 18.9.
For COc1ccccc1N1CCN(C(=O)c2c(-c3c(F)cccc3Cl)noc2C)CC1 the results were Mtb hypoxia inh 4.2, BJeLR viability 1.8, Sa ugtP lethal -1.6, PrP UTR inh -9.8, RN4220 kill 5.1, Autofluor counter 5814 and Mtb hypoxia inh growth 16.0.
Screening CCN(C(=O)COC(=O)CNS(=O)(=O)c1ccccc1)c1ccccc1 returned Mtb hypoxia inh -7.4, BJeLR viability 7.9, Sa ugtP lethal 3.5, PrP UTR inh -18.7, RN4220 kill 2.7, Autofluor counter 4076 and Mtb hypoxia inh growth -8.9.
For CC1CN(C(=O)COC(=O)c2ccc(C#N)cc2)CC(C)O1 (stereo not given) the results were BJeLR viability -1.9, PrP UTR inh 4.3 and Autofluor counter 6066.
CC(C)(C)c1ccc(C(=O)OCC(=O)NC2CC2)cc1 was read as Mtb hypoxia inh 8.6, Sa ugtP lethal 5.6, PrP UTR inh -19.0, RN4220 kill 3.1, Autofluor counter 6965 and Mtb hypoxia inh growth -1.5.
COCC(=O)N1CCN(c2ccc([N+](=O)[O-])cc2)CC1 was read as BJeLR viability -3.3, Sa ugtP lethal 12.0, PrP UTR inh 2.0, RN4220 kill 3.1 and Autofluor counter 2078.
COc1ccc(OC)c(NC(=O)N2CCCC(CNS(=O)(=O)c3cccs3)C2)c1 (stereo not given) was read as Mtb hypoxia inh 6.4, BJeLR viability 0.5, Sa ugtP lethal -0.3, PrP UTR inh -18.1, RN4220 kill 2.9, Autofluor counter 3369 and Mtb hypoxia inh growth 2.9.
O=C(COc1ccccc1Cl)N1CCN(C(=O)c2ccco2)CC1 was read as Mtb hypoxia inh 6.1, BJeLR viability -3.9, Sa ugtP lethal 9.5, PrP UTR inh -12.2, RN4220 kill 4.6, Autofluor counter 5328 and Mtb hypoxia inh growth 5.4.
CCSc1nc(N2CCOCC2)c2c(c1C#N)CC(C)(C)N(C)C2 was read as BJeLR viability 5.9, Sa ugtP lethal 5.0, PrP UTR inh -13.7, RN4220 kill 2.1 and Autofluor counter 2151.
`O=C(NC1CCCC1)C1CCN(S(=O)(=O)c2ccccc2)CC1` gave Mtb hypoxia inh -0.2, BJeLR viability -3.9, Sa ugtP lethal 4.9, PrP UTR inh -5.2, RN4220 kill 1.8, Autofluor counter 3931 and Mtb hypoxia inh growth 1.6.
Screening CC(C)CSc1nnc2c3ccccc3n(C)c2n1 returned Mtb hypoxia inh -0.4, BJeLR viability -3.6, Sa ugtP lethal 10.6, PrP UTR inh -65.4, RN4220 kill 13.3, Autofluor counter 3735 and Mtb hypoxia inh growth -25.9.
Screening CC1CCN(C(=O)CCCNC(=O)Cn2cnc3sc4c(c3c2=O)CCCC4)CC1 returned Mtb hypoxia inh 4.5, BJeLR viability -0.7, Sa ugtP lethal 2.3, PrP UTR inh -14.5, RN4220 kill 4.3, Autofluor counter 4017 and Mtb hypoxia inh growth 9.4.
O=C(COc1ccccc1)NCC(=O)Nc1ccc(S(=O)(=O)NCc2ccco2)cc1 was read as BJeLR viability 4.1, Sa ugtP lethal 10.9, PrP UTR inh -41.5, RN4220 kill -0.8 and Autofluor counter 4780.
Screening Cc1nc2c(C(=O)NCc3ccc4c(c3)OCO4)c[nH]n2c(=O)c1Cl returned Mtb hypoxia inh 3.0, BJeLR viability 0.1, Sa ugtP lethal 10.5, PrP UTR inh -15.5, RN4220 kill 5.4, Autofluor counter 25275* and Mtb hypoxia inh growth 1.9.
For CCCCn1c(N)c(N(CC(C)C)C(=O)CN(C)S(=O)(=O)c2ccc(F)cc2)c(=O)[nH]c1=O the results were Mtb hypoxia inh -4.2, BJeLR viability 6.3, Sa ugtP lethal 10.5, PrP UTR inh -22.0, RN4220 kill 3.6, Autofluor counter 5396 and Mtb hypoxia inh growth -6.4.
